VDR inh: Inhibitors of the vitamin D receptor (VDR): qHTS; Potency, µM, for inactives: max response, negative = inhibition, actives largely listed as inhibitors; Vitamin D3 receptor (Homo sapiens), P11473; hit rate 0.93% among 400,000; VDR-SRC2-3 peptide fluorescence polarization, 2 h; active = well fitted inhibition curve with a large enough effect; inconclusive = small, poorly fitted or top-dose-only effect, or another doubt; inactive = no such curve, though single readings can be large or run the other way; note: series mostly up to about 120 µM
Target sequence (P11473 whole entry, looked up): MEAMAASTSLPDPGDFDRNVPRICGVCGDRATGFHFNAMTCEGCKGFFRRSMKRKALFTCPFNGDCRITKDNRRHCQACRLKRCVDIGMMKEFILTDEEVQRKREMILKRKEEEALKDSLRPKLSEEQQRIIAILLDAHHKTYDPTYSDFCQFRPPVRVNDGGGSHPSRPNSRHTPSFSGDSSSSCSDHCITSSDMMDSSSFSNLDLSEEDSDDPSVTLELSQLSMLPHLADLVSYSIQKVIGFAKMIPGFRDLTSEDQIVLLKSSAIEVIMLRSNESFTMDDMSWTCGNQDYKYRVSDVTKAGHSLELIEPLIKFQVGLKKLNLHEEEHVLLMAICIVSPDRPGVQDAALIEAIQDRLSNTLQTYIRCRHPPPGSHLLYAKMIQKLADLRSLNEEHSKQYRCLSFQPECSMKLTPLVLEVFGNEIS
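Inhibition of the VDR/SRC2-3 peptide interaction is quantified by fluorescence polarization. Compounds (23 nl, pintool) incubate with the reagents for 2 hours at ambient room temperature.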
Starred values were filed as active, the others as inactive; u = inconclusive; & = joins results of further samples. % is set by controls: 0 for no effect and ±100 for the full control effect; potency is the fitted concentration of half-maximal effect.

VDR inh	structure
7.7%	O=C(COc1ccc(-c2nnco2)cc1)NC1CCS(=O)(=O)C1 (stereo not given)
-7.7%	CN(C)c1ccc(C=NNc2nc3c([nH]2)c(=O)n(C)c(=O)n3C)cc1
-4.3%	CN(C)S(=O)(=O)c1ccc(C(=O)NCCSc2c(-c3ccc(Cl)cc3)[nH]c3ccccc23)cc1
-6.3%	COc1ccc(-c2nnnn2-c2ccccc2OC)cc1
25.7%	Cc1cc(OCc2nc(-c3ccncc3)no2)cc(C)c1Cl
25.5%	C=CCNc1nc(N)c(C(=C(C#N)C#N)c2ccccc2)s1
12.4%	CN(C)c1nc(Oc2ccc(/C=N/O)cc2)nc(N(C)C)n1
u	O=C(CN1C(=O)c2ccccc2C1=O)NCc1ccc(F)cc1
-14.6%&-10.8%	C=C[C@@]1(C)CC(=O)[C@]2(O)[C@@]3(C)[C@@H](O)CCC(C)(C)[C@@H]3[C@H](O)[C@H](OC(C)=O)[C@@]2(C)O1
11.4%	COc1ccc(C)cc1NC(=O)NCCn1nnc2cc(S(=O)(=O)N(C)C)ccc21
-21.3%	C/C(CC(=O)NCCc1ccccc1)=N\NC(=O)COc1ccc(Br)cc1
-6.0%	CC1=C(C(=O)OC2CCCCC2)C(c2ccco2)n2ncnc2N1 (stereo not given)
2.7%	CCOC(=O)CSc1ccc(-c2nc3cc(C)c(C)cc3[nH]2)cn1
19.3%	Cc1ccc(C)c(N(C(=O)Cn2nnc(-c3cccs3)n2)C(C(=O)NC2CC2)c2ccc(C)o2)c1 (stereo not given)
10.0%	Cn1ncc(Br)c1C(=O)NC(=S)N1CCN(c2ccccn2)CC1
2.8%	Cn1c(-c2ccc(C(C)(C)C)cc2)n[nH]c1=S
-14.2%	COC(=O)N/N=C\c1cc(Br)ccc1OCc1ccccc1
5.1%	Cn1c(=O)oc2cc(S(=O)(=O)Nc3cccc(C(=O)O)c3)ccc21
-6.3%	O=C(O)CCCC(=O)N1CCN(c2nc(-c3ccccc3Cl)c3cc(Br)ccc3n2)CC1
-0.8%	Cc1cccc(OCC(=O)N/N=C/c2sc(=O)n(Cc3cccc(C(=O)O)c3)c2Cl)c1
4.5%	O=C(COc1coc(CN2CCN(c3ccccc3F)CC2)cc1=O)NCC1CCCO1 (stereo not given)
-8.5%	O=S(=O)(c1ccccc1)N1CCCC1c1cccs1 (stereo not given)
-8.8%	COC(=O)C1CCCN1C(C(=O)NC1CCCCC1)c1ccc(Cl)cc1 (stereo not given)
15.9%	Cc1ccc(C)c2c(SC(C)C(=O)NCc3ccco3)nc(-c3ccccc3)nc12 (stereo not given)
-10.3%	O=C(O)c1sccc1Oc1ccc(NS(=O)(=O)c2cccc(F)c2)cc1
-7.4%	O=C(N/N=C/c1ccco1)c1cnccn1
5.8%	Cc1cc(S(=O)(=O)C(CNC(=O)c2ccc(F)c(F)c2)c2cccs2)ccc1F (stereo not given)
-3.2%	O=C(NC1CCCCC1)c1ccc(N2CCOCC2)c([N+](=O)[O-])c1
u	CSc1nc(O)c(C(c2ccc(O)cc2)c2c(O)nc(SC)[nH]c2=O)c(=O)[nH]1
2.1%	CN(C)CCNC(=O)c1sc2cccc(F)c2c1Cl
21.7%	COc1ccc(/C=N/c2nc3ccccc3n2C)cc1OC
-7.5%	N/C(=N\c1nc2c(c(=O)[nH]1)CCCC2)Nc1ccccc1Sc1ccccc1
25.1µM*	O=C1CCC(C(=O)Nc2cccc(S(=O)(=O)Nc3ccccc3F)c2)=NN1
-4.0%	CCOc1ccc(OCC(=O)Nc2c3c(nn2C(C)(C)C)CS(=O)(=O)C3)cc1
7.8%	N#Cc1nc(-c2ccccc2Cl)oc1N1CCOCC1
10.3%	Cc1ccc(NC(=S)Nc2nc(CC(=O)Nc3ccccc3)cs2)cc1
9.2%	Cc1ccccc1CNCCSc1nnnn1-c1ccccc1
u	COc1ccc(/C=C(\NC(=O)c2cccs2)C(=O)Nc2ccccc2C)cc1OC
u	CC1CC2=C(NC(=S)NC2c2ccccc2F)/C(=C/c2ccccc2F)C1 (stereo not given)
15.9%	O=S(=O)(c1ccccc1)c1nnn2c1nc(NC1CCCCCC1)c1sccc12
12.1%	CC(=O)c1cccc(NC(=O)N2CCC(C(=O)c3ccc(F)cc3)CC2)c1
u	COc1ccc(C(=O)CCS(=O)(=O)c2ccc(C)cc2)cc1OC
9.3%	C[N+]1(CC(=O)OCCCc2ccccc2)CCOCC1
11.6%	Cc1cc(=O)oc2cc(OCC(=O)N3CCCC(C)C3)ccc12 (stereo not given)
22.0%	Cc1ccc(C)c(NC(=O)CCC(=O)N/N=C2/CC(=O)CC(C)(C)C2)c1
6.3%	COC(=O)c1cc(S(=O)(=O)NCCc2ccc(SC)cc2)c[nH]1
-3.2%	N/C(=N\c1nc2c(c(=O)[nH]1)CCC2)Nc1ccccc1
-10.4%	NS(=O)(=O)c1cccnc1Nc1ccc(Cl)c(Cl)c1
-5.7%	CC1CCN(c2ccc3nnc(CCC(=O)NCCCOC(C)C)n3n2)CC1
31.6µM*	O=C1/C(=C\c2ccccc2)CN(C(=O)CCN2CCCCC2)C/C1=C/c1ccccc1

Individual results from above:
Entry of C=CCNc1nc(N)c(C(=C(C#N)C#N)c2ccccc2)s1 under VDR inh: 25.5%
Entry of O=C1/C(=C\c2ccccc2)CN(C(=O)CCN2CCCCC2)C/C1=C/c1ccccc1 under VDR inh: 31.6µM*

Continued.
VDR inh	structure
-3.8%	O=C(CSc1nccn1-c1cccc(Cl)c1)NC1CCCC1
2.5%	COc1ccccc1CN1CCNC(=O)C1CC(=O)N(C)Cc1ccon1 (stereo not given)
13.4%	CCc1cccc(CC)c1-n1c(SCn2nnc3ccccc3c2=O)nnc1-c1cccnc1
u	COc1ccc(C(=O)Oc2ccc(C(c3c(C)[nH][nH]c3=O)c3c(C)[nH][nH]c3=O)cc2OC)cc1
-14.7%	CCOc1ccccc1N1CCN(C(=O)[C@@H]2CCCN2C2=NS(=O)(=O)c3ccccc32)CC1
-14.7%	C(#Cc1c(-c2ccsc2)sc2ccccc12)c1ccsc1
-6.1%	Cc1ccc(S(=O)(=O)N2CCOCC2)cc1C(=O)N1CCC(Cc2ccccc2)CC1
-3.8%	Cc1ccc(C)c(S(=O)(=O)N/N=C/c2ccc(F)cc2)c1
5.2%	COCc1c(C(=O)N/N=C/c2c[nH]c3ccccc23)nnn1-c1nonc1N
2.0%	Cc1ccc(C)c(N(C(=O)c2ccco2)C(C(=O)NC2CCCC2)c2ccco2)c1 (stereo not given)
-17.3%	COc1ccc(/C=N/NC2=NS(=O)(=O)c3ccccc32)cc1OC(C)=O
-24.3%	CCc1ccc2oc(-c3ccc(NC(=O)c4ccc(OC)c(Br)c4)cc3)nc2c1
-0.2%	FC(F)(F)c1cccc(NC(=S)Nc2ccc(Cl)c(Cl)c2)c1
11.0%	COc1ccc(C)cc1NC(=O)c1ccc(=O)n(Cc2ccccc2)c1
-8.8%	Cc1ccc2ccc(S(=O)(=O)NCc3ccco3)cc2c1
6.2%	COc1ccc(-c2noc(CNS(=O)(=O)c3ccccc3)n2)cc1
-2.7%	CN(C)S(=O)(=O)c1ccc(N2CCCC2)c(C(=O)NNC(=O)COc2ccccc2Cl)c1
3.9%	COc1cccc(CN2CC(C(=O)NCCCn3ccnc3C)CCC2=O)c1 (stereo not given)
7.7%	COc1ccc(Cl)cc1C(=O)Nc1ccc(NC(=O)c2ccco2)cc1
-7.5%	CCc1ccc(NC(=O)Cn2nnc(C(=O)NCc3ccc4c(c3)OCO4)c2N)cc1
10.0%	Fc1ccc(-c2nnc3ccc(N4CCCC4)nn23)cc1
-5.9%	O=C(c1ccccc1Cl)N(Cc1ccc(Br)cc1)N1C(=O)CCC1=O
0.6%	COc1ccc(C2=NN(CC(=O)NCCc3ccccc3)C(=O)CC2)cc1
-15.7%	Cc1cc2occ(CC(=O)Nc3nccs3)c2cc1C(C)C
-5.8%	COC(=O)c1ccc(C23CC4(C2)[C@H](CN(C)[C@@H]4c2ccccc2)C3c2ccccc2)cc1 (stereo not given in full)
-26.0%	COc1ccc(OCC(=O)N/N=C2\CCCCc3ccccc32)cc1
5.2%&4.8%	Cc1[nH]nc(N=CC2=C(O)CC(c3ccco3)CC2=O)c1-c1ccccc1 (stereo not given)
-3.5%	Cc1cc2c(s1)CCCCC(=O)N2
-18.4%	Cc1cccc(NC(=O)CN2C(=O)N/C(=C/c3cc(C)n(-c4cccnc4)c3C)C2=O)c1
4.8%	CN(Cc1ccc(OC(F)F)cc1)C(=O)c1ccc2c(=O)n3c(nc2c1)CCC3
18.2%	COc1ccc(-n2nc3c(N4CCC(C(=O)NCCc5ccccc5)CC4)nnc(C)c3c2C)cc1
4.4%	COc1ccc(NC(=O)c2cc(-c3cc(C)c(C)cc3O)n[nH]2)c(OC)c1
16.5%	COc1ccc(COC(=O)C2CCN(S(=O)(=O)c3ccc(F)cc3)CC2)cc1
6.1%	NC(=O)C(c1ccccc1)c1ccc(C(=O)c2ccccc2)cc1 (stereo not given)
20.8%	Cc1ccc(NC(=O)c2cn(-c3ccccc3)nc2-c2ccccc2)cc1
u	COC(=O)c1c(N2C(=O)CC(Sc3ccccc3C(=O)O)C2=O)sc(C)c1C (stereo not given)
-20.1%	Cn1c(NNC(=O)c2cccc3ccccc23)cc(=O)n(C)c1=O
8.0%	COCC(=O)N(Cc1cc2ccccc2[nH]c1=O)c1ccc(OC)cc1
7.1%	CCn1nc(NS(=O)(=O)c2ccccc2)c2cc3cc(C)ccc3nc21
-1.7%	O=C(c1cccc(S(=O)(=O)N2CCc3ccccc3C2)c1)N1CCN(c2ccc(O)cc2)CC1
4.5%	COc1ccc(CNC(=O)C2CCCN(S(=O)(=O)c3c(C)noc3/C=C/N(C)C)C2)cc1 (stereo not given)
-0.6%	CC(=O)c1ccc(NC2=NS(=O)(=O)c3ccccc32)cc1
1.3%	COc1ccc(N(CC(=O)N2CCCC2)S(=O)(=O)c2ccc(NC(C)=O)cc2)cc1
-7.1%	Cc1ccccc1NC(=O)CSc1nc2ccccc2c(=O)n1CC1CCCO1 (stereo not given)
-7.6%	Cc1ccc(S(=O)(=O)N2CCOCC2)cc1NC(=O)COC(=O)CCC(=O)c1ccc(F)cc1
-18.1%	CCOc1ccc(-n2c(=O)c3c4c(sc3n(Cc3cccc(Cl)c3)c2=O)CCCC4)cc1
2.6%	COc1ccc(OC)c(C2C=C(c3ccc(C)c(C)c3)Nc3nnnn32)c1 (stereo not given)
-9.9%	CN(c1ccccc1)S(=O)(=O)c1ccc(Cl)c(C(=O)NC2=NCCS2)c1
-4.0%	NC(=O)CC(NC(=O)Cc1cccc2ccccc12)c1ccc(NCc2ccccc2)c([N+](=O)[O-])c1 (stereo not given)
0.7%	CCN1CCN(C(=O)c2ccc3c(=O)n(C4CCCC4)c(=S)[nH]c3c2)CC1

A draw from above in order of molecular weight, low to high:
VDR inh	structure
6.1%	NC(=O)C(c1ccccc1)c1ccc(C(=O)c2ccccc2)cc1 (stereo not given)
-26.0%	COc1ccc(OCC(=O)N/N=C2\CCCCc3ccccc32)cc1
8.0%	COCC(=O)N(Cc1cc2ccccc2[nH]c1=O)c1ccc(OC)cc1
1.3%	COc1ccc(N(CC(=O)N2CCCC2)S(=O)(=O)c2ccc(NC(C)=O)cc2)cc1
-18.1%	CCOc1ccc(-n2c(=O)c3c4c(sc3n(Cc3cccc(Cl)c3)c2=O)CCCC4)cc1

As a short view, part of the list above.
VDR inh	structure
7.7%	O=C(COc1ccc(-c2nnco2)cc1)NC1CCS(=O)(=O)C1 (stereo not given)
-7.7%	CN(C)c1ccc(C=NNc2nc3c([nH]2)c(=O)n(C)c(=O)n3C)cc1

Next section.
VDR inh	structure
7.8%	COc1cccc(S(=O)(=O)NCc2ccc(C(=O)Nc3cccc(Cl)c3)cc2)c1
u	CN(C)S(=O)(=O)c1cccc(N=C2NN=C(c3ccccc3)CS2)c1
-6.6%	Cc1ccc(C)c(NC(=O)CN(C)C(=O)C2CCN(C(=O)Nc3ccccc3)CC2)c1
-3.9%	Cc1ccc(SCc2cc(=O)c3c(=O)n(-c4ccccc4)[nH]c3[nH]2)cc1
0.3%	COc1cc(CNCCc2c[nH]c3ccccc23)cc(Cl)c1OCC(N)=O
-14.9%	c1ccc(CN2CCN(c3nc4ccccc4s3)CC2)cc1
-5.2%	CCN(CC)S(=O)(=O)c1ccc(C(=O)N(c2ccc(C)cc2)C2C=CS(=O)(=O)C2)cc1 (stereo not given)
4.4%	CCCc1nnc(NC(=O)CC(=O)Nc2ccccc2C(=O)O)s1
u	O=C(CCS(=O)(=O)c1ccccc1Cl)NCc1ccc(F)cc1
-5.1%	COc1ccc(OCC(=O)Nc2cc3c(cc2C(=O)O)OCCCO3)cc1
7.7%	COc1cc(OC)cc(C(=O)N/N=C2/SCC(=O)N2Cc2ccco2)c1
8.0%	CC(=O)Nc1ccc(S(=O)(=O)N[C@H](C(=O)O)C(C)C)cc1
-10.4%	COC(=O)c1sc(-c2ccccc2)cc1NC(=O)c1cc(OC)cc(OC)c1
u	Fc1cccc(/C=N/Nc2nncc3ccccc23)c1
-4.4%	COc1ccc(S(=O)(=O)N2CCCC2CNC(=O)C(=O)NC2CCCCCC2)cc1 (stereo not given)
-22.6%	CCn1cc(/C=N/NC(=O)COc2cccc3cccnc23)c2ccccc21
10.6%	O=C1Nc2cc(C(=O)N3CCC(N4CCCCC4)CC3)ccc2S/C1=C\c1ccccc1
-7.8%	S=C(Nc1ccc(Cl)cc1)N1CCN(Cc2ccccc2)CC1
21.3%	CN1C(=O)C2(SCC(=O)N2c2ccc(F)cc2)c2ccccc21 (stereo not given)
1.0%	O=C(Nc1ccc(Cl)cc1Cl)N1CCN(c2ncccn2)CC1
-14.7%	O=C(CSc1nnc(CNC(=O)c2cccs2)o1)Nc1ccccc1F
u	N/C(=N\OC(=O)c1ccc(Cl)cc1)c1[nH]ncc1Br
-12.4%	O=C(NCCN1C(=O)S/C(=C\c2ccccc2F)C1=O)C1CCCN1C(=O)c1cccs1 (stereo not given)

VDR inh: entries above that show a hit.
VDR inh	structure
25.1µM*	O=C1CCC(C(=O)Nc2cccc(S(=O)(=O)Nc3ccccc3F)c2)=NN1
31.6µM*	O=C1/C(=C\c2ccccc2)CN(C(=O)CCN2CCCCC2)C/C1=C/c1ccccc1

The list is partial; rates above refer to the full screens.
